# High-throughput results (PubChem)
# AmpC inh no det = blocks E. coli AmpC beta-lactamase in absence of detergent; P00811; AmpC nitrocefin hydrolysis, absorbance 480 nm, no detergent; potencies from a single point are estimates; Potency, µM (series often up to 28.7 µM), for the others: top-dose activity change, negative = inhibition; hit rate 1.8% among 71,000; AID 585; active = falling curve, for most hits resting on a single point; inconclusive = weak or doubtful change; inactive = flat or rising curve; also: % of control where 0% means no effect; about half of the hits show no inhibition at the top dose; a quarter of the inactives give rising signals
# Target sequence (P00811 whole entry, looked up): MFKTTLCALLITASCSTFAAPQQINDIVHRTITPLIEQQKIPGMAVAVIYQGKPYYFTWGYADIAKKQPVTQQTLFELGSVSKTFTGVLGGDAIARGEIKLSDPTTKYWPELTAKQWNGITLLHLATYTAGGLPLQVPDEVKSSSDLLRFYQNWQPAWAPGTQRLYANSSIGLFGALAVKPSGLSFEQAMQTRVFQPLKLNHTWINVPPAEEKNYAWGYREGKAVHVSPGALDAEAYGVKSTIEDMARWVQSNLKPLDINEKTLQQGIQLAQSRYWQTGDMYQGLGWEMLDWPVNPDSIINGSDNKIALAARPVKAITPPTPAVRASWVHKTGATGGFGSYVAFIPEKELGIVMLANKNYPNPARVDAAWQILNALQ
#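 AmpC in 20 mM phosphate buffer pH 7.0 was preincubated 15 min at room temperature with compounds. Nitrocefin (800 uM stock) was then added and hydrolysis followed at 480 nm every 20 s for 4 min.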
# Active calls of the source: *; ? = inconclusive; & = joins results of further samples; [ ] = remark or other dose. Potency is read from the fitted curve at half-maximal effect. Only part of the results is shown, so the mix of outcomes need not match the whole.
SMILES,AmpC inh no det
Oc1[nH]c2ccccc2c1C1=NCCCC1,11%
COc1cc(C(=O)N2c3ccccc3CC2C)cc(OC)c1OC (centres undefined),39%
Cc1cc(C)c(NC(=O)Cn2c(=O)n(Cc3ccco3)c(=O)c3ccccc32)c(C)c1,6%
COc1ccc(-c2nnn(CC(=O)N(CC(=O)NC3CCCC3)Cc3cccs3)n2)cc1OC,96%
COc1ccc2c(c1)CCc1c(C(=O)Nc3cc(C)n(Cc4ccc(Cl)cc4)n3)noc1-2,7.9µM*
COc1ccc(C(=O)n2ccc(C)n2)cc1Br,-15%
COC(=O)c1ccc(COC(=O)C23CC4CC(CC(O)(C4)C2)C3)o1,13%
COc1ccc(C)cc1NC(=O)CSc1nnc(COc2ccc(Cl)cc2)n1Cc1ccco1,40%
O=S(=O)(Nc1cc(Cl)ccc1N1CCCCC1)c1cccs1,-18%
Cc1nc2scc(-c3ccccc3)c2c(=O)n1/N=C/c1ccco1,34%
Cc1ccc(S(=O)(=O)N(C)Cc2ccc(-c3nnc4n3CCC4)cc2)cc1,92%
COC(=O)c1[nH]c2ccccc2c1NC(=O)CN1CCN(Cc2ccc3c(c2)OCO3)CC1,57%
O=C1CCCc2c1[nH]c1ccccc21,-9%
Clc1ccccc1-c1nnc2sc(-c3cccs3)nn12,12%
NC(=O)CN(c1ccc(Cl)cc1)S(=O)(=O)c1ccccc1,10%
Cc1ncsc1C(=O)NCc1ccc(N2CCCC2=O)cc1,7%
Clc1ccccc1/C=C\c1ccnc2ccccc12,-6%[5.75 µM]
CCOC(=O)C1=C(C)N=C2SCCC(=O)N2C1c1cccs1 (centres undefined),4%
O=C(NCc1cccnc1)C1c2ccccc2C(=O)N1C1CCCC1 (centres undefined),4µM*[single pt active]
CCOc1ccc(NC(=O)CSc2nnc(Cc3cccn3C)n2-c2ccc(OC)cc2)cc1,82%
CCN1C(=O)/C(=C/N(C)C)c2ccccc21,6%
Cn1c(/N=C/c2c(O)ccc3ccccc23)nc2ccccc21,1%
CCOC(=O)Cn1c(=O)sc2ccccc21,1%
Cc1nn(-c2ccccc2)c(Cl)c1C(=O)NCC(=O)O,0%
O=C(Cc1ccccc1)Nc1nc2ccc(Cl)cc2c2nc(-c3ccco3)nn12,-7%
Cn1c(SCC(=O)Nc2cccc3ccccc23)nc(O)cc1=O,-14%
CC(C)(C)c1[nH]nc2c1C(c1ccncc1)C(C#N)=C(N)O2 (centres undefined),-7%
Nc1c(NCc2ccccc2F)c(=O)[nH]c(=O)n1Cc1ccccc1,-14%
O=C1CC(c2ccc(S(=O)(=O)NCCOc3ccccc3)cc2)CN1 (centres undefined),2%
O=C(O)/C(=C/c1c(C(=O)O)[nH]c2cc(Cl)cc(Cl)c12)c1ccccc1,-8%

# Four entries from above, field by field.
Clc1ccccc1/C=C\c1ccnc2ccccc12
  AmpC inh no det = -6%[5.75 µM]

CCOC(=O)C1=C(C)N=C2SCCC(=O)N2C1c1cccs1 (centres undefined)
  AmpC inh no det = 4%

O=C(NCc1cccnc1)C1c2ccccc2C(=O)N1C1CCCC1 (centres undefined)
  AmpC inh no det = 4µM*[single pt active]

CCOc1ccc(NC(=O)CSc2nnc(Cc3cccn3C)n2-c2ccc(OC)cc2)cc1
  AmpC inh no det = 82%

# (list continues)
SMILES,AmpC inh no det
CCOc1ccccc1CNc1nc2nc3c(c(=O)n2[nH]1)CCC3,-8%
C[C@H]1CCCC(=O)CCCCCc2cc(O)cc(O)c2C(=O)O1,-17%
Cc1nn(-c2ccccc2)c2sc(C(=O)N(CC(=O)NC(C)(C)C)Cc3ccco3)cc12,77%
COc1cc(C2=NOC(C(=O)NCc3ccco3)C2)cc(OC)c1OC (centres undefined),16%
CCCCOC(=O)CSc1nnc(N)s1,-5%
Cc1ccc(S(=O)(=O)c2c(C)nn(C(C)(C)C)c2OC(=O)c2cccs2)cc1,12%
COc1cc(NC(=O)COc2ccc(-n3cnnn3)cc2)c(OC)cc1Cl,-6%
Cc1ccc2nc(N3CCN(C(=O)c4cccs4)CC3)c(C#N)cc2c1,26%
COC(=O)c1cccc(N(C(=O)CNC(=O)c2ccco2)C(C(=O)NC2CCCC2)c2ccco2)c1 (centres undefined),18%
COc1ccc(OC)c(S(=O)(=O)Nc2cc(OC)c(Cl)cc2OC)c1,45%
COCCCNC(=O)CN(Cc1ccc(Cl)cc1)S(C)(=O)=O,23%
COc1ccccc1NC(=O)CC(NCc1ccccc1)C(=O)O (centres undefined),10%
COc1cccc(C2=NOC(C(=O)NCc3ccccn3)C2)c1 (centres undefined),-2%
CC(=O)Nc1ccc(S(=O)(=O)n2nc(C)cc2C)cc1,7%
COc1ccccc1NC(=O)Cc1noc(CN(C)Cc2cccs2)n1,17%

# Part of the list above, set out differently:
molecule | AmpC inh no det
COc1ccc(OC)c(S(=O)(=O)Nc2cc(OC)c(Cl)cc2OC)c1 | 45%
COCCCNC(=O)CN(Cc1ccc(Cl)cc1)S(C)(=O)=O | 23%

# Going on with the list.
SMILES,AmpC inh no det
Cn1c(=O)cc(OCCCC(=O)NCCN2CCN(c3ccccc3F)CC2)c2ccccc21,130%
CCOC(=O)N1CCC(NC(=O)CCC(=O)N2CCOc3ccc(C)cc32)CC1,51%
CCOC(=O)c1c(C)[nH]c(C(=O)COC(=O)c2ccc(F)c(S(=O)(=O)N3CCOCC3)c2)c1C,87%
c1ccc(Nc2ccccc2)cc1,-7%
COC(=O)CSc1nc2ccc(NC(=O)CSc3nnnn3Cc3ccccc3)cc2s1,?
COc1ccccc1C(=O)Nc1ccc2c(c1)OCO2,-5%
CCOC(=O)Cc1c(C)c2c(O)cc(O)cc2oc1=O,-8%
CCOC(=O)N1CCN(S(=O)(=O)c2ccc(OC)c3ccccc23)CC1,75%
Cn1c(=O)[nH]c(=O)c2c1nc(CN1CCN(c3ccc(F)cc3)CC1)n2CCc1ccccc1,94%
Cc1ccc(-c2nnc(N(C)C(=O)C3CCCO3)s2)cn1 (centres undefined),-1%
CCOC(=O)N1CCN(C(=O)c2nc3ccccc3s2)CC1,18%
CCc1ccc(NC(=O)Nc2cccs2)cc1,-21%
Cc1cccc(N2CCCn3c2nc2c3c(=O)n(CC(=O)OCc3ccccc3)c(=O)n2C)c1,79%
C=CCSc1nnc(-c2ccccc2NC(C)=O)c(=O)[nH]1,4%
CC(C)C[C@@H](CC(=O)N[C@@H](CCCN)CC(=O)N[C@@H]1CCCC[C@H]1C(=O)N[C@H](CC(=O)N[C@@H](CCC(=O)O)CC(=O)O)CC(C)C)NC(=O)[C@@H]1CCCC[C@H]1N,164%
Cc1ccc(S(=O)(=O)N2CCN(C(=O)CSc3nnnn3C)C2)cc1,8%
CCOC(=O)N(C)c1ccc(C(O)(C(=O)OCC)C(F)(F)F)cc1 (centres undefined),26%
Cn1nc(-c2ccc(Cl)cc2)c2cc(C(=O)N3CCN(c4ccccc4)CC3)sc21,4µM*[single pt active]
CC(=O)Nc1nc(CC(=O)c2ccccc2)cs1,0%
CN(C)c1ccc(C(=O)c2ccccc2C(=O)O)c(O)c1,-8%
Cc1ccc(S(=O)(=O)N2CCC(C(=O)N[C@@H](C)C(=O)Nc3ccc4c(c3)OCO4)CC2)cc1,13%
Brc1ccc(CSc2ncn[nH]2)cc1,-1%
COc1ccccc1C(=O)Nc1ncc2c(n1)CC(c1ccco1)CC2=O (centres undefined),12%
COc1cc(SC)ccc1C(=O)Nc1ccon1,-6%
Cc1cc(-n2c(SCC(=O)NCc3cccs3)nc3n[nH]c(C)c3c2=N)ccc1Cl,42%
COc1ccc(Br)cc1C(=O)O,-6%
CCNC(=O)c1ccccc1NC(=O)c1cccc(S(=O)(=O)N2CCC(C)CC2)c1,21%
COc1ccccc1-c1cc(N)n[nH]1,-1%
Cc1ccc(S(=O)(=O)NCC(=O)N(CCc2ccccc2)CC(=O)NCc2ccco2)cc1,12%
CC1(C)C(=O)Nc2ccccc2N1C(=O)CN1C(=O)c2ccccc2C1=O,-4%
COc1cccc(OC)c1C(=O)Nc1ccc(S(=O)(=O)Nc2cc(C)nc(C)n2)cc1,-8%
CCN(CC)CCCNC(=O)Cn1cc2c(n1)CCC(C)C2 (centres undefined),-11%
O=C(CSc1nnc(-c2ccccc2)o1)Nn1cnnc1,-3%
COc1cc2c(cc1O)C[C@@H]1c3c(cc(O)c(OC)c3-2)CCN1C,-4%[5.75 µM]
CCOC(=O)c1ccccc1NC1CC(=O)N(c2ccccc2C)C1=O (centres undefined),4%
COC(=O)c1ccc(C(NC(=O)OCc2ccccc2)/C(=C/[C@@H](C)C(=O)NCc2cccnc2)c2cccnc2)cc1 (some centres undefined),116%
CCn1nnc(-c2ccccc2NS(=O)(=O)c2ccc(S(=O)(=O)N3CCCCCC3)cc2)n1,20%
CCOCCOC(=O)c1cccc(NC(=O)OCC)c1,7%
O=C1OC(Nc2ccc(F)cc2F)c2ccccc21 (centres undefined),-14%
COc1cc2[nH]c(=O)n(CCCCCC(=O)N3CCN(c4ccccn4)CC3)c(=O)c2cc1OC,90%
CCOC(=O)c1c(C)[nH]c(C(=O)COC(=O)c2ccc(N3CCCC3=O)cc2)c1C,23%
O=C(CNS(=O)(=O)c1ccc(F)cc1)N1CCN(c2ccccc2)CC1,14%
CCOc1ccc(-n2c(SCC(=O)NCc3ccco3)nc3c([nH]c4ccccc43)c2=O)cc1,?
COC(=O)c1ccccc1NC(=O)CN1CCC(NC(=O)c2ccc(C)cc2)CC1,54%
CCCCCCCC/C=C\CCCCCCCC(N)=O,4%

# Single entries from the results shown.
# Under AmpC inh no det, COc1cc2[nH]c(=O)n(CCCCCC(=O)N3CCN(c4ccccn4)CC3)c(=O)c2cc1OC is entered as 90%
# Under AmpC inh no det, COc1cc2c(cc1O)C[C@@H]1c3c(cc(O)c(OC)c3-2)CCN1C is entered as -4%[5.75 µM]
# Under AmpC inh no det, O=C(CNS(=O)(=O)c1ccc(F)cc1)N1CCN(c2ccccc2)CC1 is entered as 14%
# Under AmpC inh no det, CCOC(=O)c1ccccc1NC1CC(=O)N(c2ccccc2C)C1=O (centres undefined) is entered as 4%

# Additional compounds follow.
SMILES,AmpC inh no det
C[N+](C)(C)CC(=O)O,-2%
CN(Cc1ccco1)c1ncncc1-c1cccc(C#N)c1,13%
Cc1noc(C)c1CSc1nnc2scc(-c3ccccc3)n12,12%
Cn1c(SCC(=O)N2CCCc3ccccc32)nnc1-c1ccccc1,12%
Cc1cc(N)n(C2CCN(C)CC2)n1,-6%
COc1ccc(C(=O)NC2(C(F)(F)F)N=C3SCCN3C2=O)cc1 (centres undefined),-1%
Cc1ccc2c(c1)NC(=O)C(CC(=O)Nc1ccc(CN3CCC(C)CC3)cc1)O2 (centres undefined),18%
COCCN(C(=O)C(F)(F)F)C(C(=O)NC1CCCCC1)c1ccco1 (centres undefined),7%
COc1cc2ccc(=O)oc2c(O)c1OCC=C(C)C,-3%&-5%
CNCC[C@@H](Oc1ccccc1C)c1ccccc1,11%
N#Cc1ccc(NC(=O)N2CCC(c3nc4c(nnn4Cc4cccc(Cl)c4)c(=O)[nH]3)CC2)cc1,26%
COc1ccc(C)cc1NC(=O)CN(C)S(=O)(=O)c1cccs1,1%
Nc1ncnc2oc(-c3ccco3)c(-c3ccco3)c12,-2%
CC(=O)OC(Cn1ccnc1)c1ccccc1 (centres undefined),75%
O=[As](O)(O)c1ccc(Cc2ccc([As](=O)(O)O)cc2)cc1,12%[5.75 µM]
O=C(OCC(=O)N1CCCc2ccccc21)c1ccc(Br)o1,1%
COc1ccccc1N1CCN(CC(=O)Nc2ccc(C)c(F)c2)CC1,154%
CNC(=O)CSc1nnc(CCc2ccccc2)n1-c1ccccc1,37%
CCn1nc(C)c(NC(=O)CSc2nnc(-c3ccco3)n2C)c1C,-1%
Cc1cnc(CNc2nc(-c3ccc4c(c3)OCO4)nc3ccccc23)cn1,53%
CN1CCN(CCCN2c3ccccc3Sc3ccc(Cl)cc32)CC1,61%[12.8 µM]
CC(Oc1ccccc1)C(=O)Nc1ccc(C(N)=O)cc1 (centres undefined),15%
CC1CC(C)CN(CCCNC(=O)CC2Oc3ccccc3NC2=O)C1 (centres undefined),4µM*[single pt active]
COC(=O)C(C)Sc1nnc(Cc2cc(=O)[nH]c(=O)[nH]2)n1-c1ccc(OC)cc1 (centres undefined),4µM*[single pt active]
O=C(NCC1CCCO1)Nc1cccc(Cl)c1 (centres undefined),-10%
Cc1nc(SCc2c(F)cccc2Cl)n[nH]1,0%
CC(C)(C)c1ccc(CN2CCN([C@H](c3ccccc3)c3ccc(Cl)cc3)CC2)cc1,16%[5.75 µM]
c1c[nH]c(CN2CCN(Cc3ncc[nH]3)CC2)n1,-2%[5.75 µM]
COc1cccc(C(=O)N(Cc2ccc3c(c2)OCO3)Cc2nc3ccccc3c(=O)[nH]2)c1,7%
O=C(CCNC(=O)Cn1ccc2ccccc2c1=O)NCCN1CCc2ccccc2C1,22%

# An excerpt of these results, as tab-separated lines.
SMILES	AmpC inh no det
c1c[nH]c(CN2CCN(Cc3ncc[nH]3)CC2)n1	-2%[5.75 µM]
CCn1nc(C)c(NC(=O)CSc2nnc(-c3ccco3)n2C)c1C	-1%

# Continuation:
SMILES,AmpC inh no det
Cn1cc(Cl)c(C(=O)NC2CCCC2)n1,5%
O=C(CS(=O)(=O)Cc1ccccc1)N1CCc2ccccc21,14%
COc1ccc(C(OC(=O)c2ccco2)C(=O)NC2CCCCC2)cc1OC (centres undefined),15%
CCN(CC)c1ccc(C(=O)OCC(=O)N2CCN(c3ccccc3)CC2)cc1,49%
CN1CCN(Cc2c(O)ccc3c(=O)c(Oc4ccccc4Cl)c(C(F)(F)F)oc23)CC1,127%
Cc1ccc(N2CC(c3nc4ccccc4n3C)CC2=O)cc1C (centres undefined),64%
COc1ccc(NC(=O)c2cccc(-n3cnnn3)c2)cc1,-11%
CC(C)Nc1oc(-c2cccc3ccccc23)nc1C#N,10%
COc1ccc(-c2nc3cnc(OCc4ccccc4)nc3n(CCC#N)c2=O)cc1,-6%
